# From PubChem
# BJeLR viability: kills HRASV12-expressing BJeLR cells; BJeLR (HRASV12) viability, CellTiter-Glo ATP luminescence, 48 h; reference of the scale not given here; inhibition, % (test concentration not listed); 0.17% of 300,000 active; AID 1554;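 active = replicate mean above 50%; inconclusive = above 50% but judged a plate artefact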;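 also: 50 nL library stock added to about 25 µL; numbers are from one replicate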
# PrP 5UTR inh: inhibition of PrP 5' UTR reporter expression | cell-based PrP 5' UTR mRNA reporter, plate reader | inhibition, % (concentration not given with the values) | 0.35% of 340,000 active;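 active = every replicate at 50% or more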;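 also: 0 = median of the neutral control wells; tested in H4 reporter cells; numbers are from one replicate; inactives centre near -14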
# RN4220 kill: kills Staphylococcus aureus RN4220 | S. aureus RN4220 growth, OD600, 16 h | inhibition, % (no concentration beside the values) | 0.33% of 330,000 active | AID 1259311;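 active = z-score of -3 or lower and OD600 up to 0.18 on both plates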;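 also: plate controls were untreated cells for no effect and reference antibiotic for full effect; stock transfer was 100 nL into about 80 µL; one replicate is shown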
# Sa ugtP lethal: compounds lethal to S. aureus RN4220 ugtP deletion mutant. OD600 growth, 16 h; some inactives read as strong as hits. growth inhibition, % (concentration not given with the values). 0.54% of 330,000 active. AID 1259309;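 active = z-score under -3 and OD600 up to 0.15 on both plates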;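 also: plate controls were untreated wells for no effect and antibiotic for full effect; wells of about 80 µL received 100 nL stock; the first replicate is given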
# Bead autofluor: counter-screen for toxin protease inhibitors: compound fluorescence; compound autofluorescence counterscreen, microsphere flow cytometry; hits give high values; fluorescence intensity (concentration not given with the values); 3.1% of 360,000 active; AID 624483;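 active = at least 3 SD above the mean of all compounds, about 16000 in these data; inconclusive = too few beads counted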;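 also: 100 nL of 1 mM stock went into each well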
# Mtb hypoxia rep: inhibitors of hypoxia-regulated fluorescent reporter in Mycobacterium tuberculosis | fluorescence inhibition, % (no concentration beside the values) | 0.1% of 300,000 active | AID 1159583 | M. tuberculosis hypoxia-regulated fluorescent reporter, fluorescence;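 active = 35 to 45% if threefold the growth effect, above 45% if 1.5-fold the growth effect; inactive = the rest, general growth blockers included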;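 also: wells of about 50 µL received 100 nL stock; 0% = vehicle wells and 100% = reference inhibitor wells; whole bacteria with a GFP reporter of the hypoxia response; strong numbers were not always called active; many hits fall short of the cut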
# Mtb hypoxia rep growth: also measured in Mtb hypoxia rep; calls as there; growth inhibition, %; measured here: M. tuberculosis growth (absorbance);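 0% = vehicle and 100% = reference antibiotic; read after six days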
# Starred values were filed as active, the others as inactive; ? = inconclusive; nt = no result given; & = joins results of further samples.
SMILES,BJeLR viability,PrP 5UTR inh,RN4220 kill,Sa ugtP lethal,Bead autofluor,Mtb hypoxia rep,Mtb hypoxia rep growth
O=C(c1ccc(S(=O)(=O)Cc2ccccc2F)c([N+](=O)[O-])c1)N1CCCC1,-8,-21,2.2,8,4325,-2,15
CCC1C(=O)NCCN1C(=O)c1ccccc1OC1CCN(S(C)(=O)=O)CC1 (stereo unspecified),-2,-23,2.0,13,4231,3,4
CCc1cccc2c1NC(=O)C21OCCO1,3,14,0.4,3,3512,9,-5
Cn1nc(C(F)(F)F)c2cc(C(=O)N3CCOCC3)sc21,-2,4,3.7,6,3174,15,8
NC(=O)c1cccn1Cc1ccccc1Cl,3,7,1.0,1,22851*,0,3
O=C(Nc1ccc(C(=O)c2ccccc2)cc1)c1ccccc1,3,-67,1.6,4,3914,-1,10
NC1=NC(=O)S/C1=C\c1ccc(F)cc1,-19,7,nt,nt,4171,nt,nt
CCOC(=O)c1c(C)[nH]c(C)c1S(=O)(=O)N1CCCCC1,10,-9,-1.1,2,5735,7,11
CC1CCCC(C)N1C(=O)COC(=O)c1cc(-c2cccs2)nn1-c1ccccc1 (stereo unspecified),-1,-13,-0.9,-5,nt,-1,0
Cc1ccc([N+](=O)[O-])cc1-c1ccc(/C=C(\C#N)c2[nH]nc(N)c2C#N)o1,nt,-38,4.8,-11,1979,14,2
O=C(CSc1ccc(F)cc1)Nc1ccc(C2SCCS2)cc1,-18,-69,nt,nt,4364,nt,nt
O=C1C=C(Nc2ccccc2)c2ccccc2C1=O,-8,-14,75,79,3691,1,14
O=C(NN=Cc1ccc([N+](=O)[O-])o1)c1cccc(S(=O)(=O)N2CCOCC2)c1,nt,nt,29,2,nt,-4,14
Cc1cc(NCC2CCCO2)n2c(nc3ccccc32)c1C#N (stereo unspecified),26,-4,-3.8,9,3347,nt,nt
Cn1nnc2c(N3CCCCC3)nccc21,1,-3,0.6,-3,4958,nt,nt
Cc1ccc(-n2nnnc2SCC(=O)N2CCNC2=O)cc1C,nt,-7,1.1,4,6424,0,1
O=C(NC12CC3CC(CC(C3)C1)C2)N1CC2Cc3cccc(=O)n3C(C2)C1 (stereo unspecified),0,1,3.6,-6,3414,3,5
O=C(CSc1nc2ccccc2c(=O)[nH]1)c1ccccc1,-16,-18,5.9,-1,10288,5,6
Cc1noc(C)c1C(=O)N(C)Cc1ccccc1,-5,-1,4.1,5,5307,8,-5
COc1ccc(NC(=O)Cn2nnc(C(=O)NCCc3ccccc3)c2N)c(OC)c1,11,-17,6.2,-1,4336,5,2
COC(=O)Cc1ccc(NC(=S)NCc2cccc(OC)c2)cc1,6,-28,0.0,3,4747,3,-7
COc1ccc(CNCc2ccc(F)cc2)c(OC)c1,1,-16,3.2,6,3577,8,2
Cn1cc(Br)c(C(=O)N/N=C/c2cc3c(cc2Cl)OCO3)n1,7,-46,nt,nt,5062,nt,nt
C(=N\N1CCN(Cc2ccccc2)CC1)/c1ccccc1,3,-45,nt,nt,5378,nt,nt
NS(=O)(=O)c1ccc(CCNC(=O)COC(=O)CC(c2ccccc2)c2ccccc2)cc1,8,-9,nt,nt,4699,nt,nt
C=CCCC(=O)N1CCC(n2nccc2NC(=O)CCCc2ccccc2)CC1,-8,-12,-1.3,1,5657,4,9
CC(C)NC(=O)c1c(O)c2ccccc2[nH]c1=O,6,-1,3.6,-6,11106,9,3
CCOC(=O)C=C1CCN(c2ncc(C(F)(F)F)cc2Cl)CC1,-6,-33,13,48,8955,-9,11
Cc1ccc(S(=O)(=O)N(C)c2ccc(C(=O)NCC3CCCO3)cc2)cc1 (stereo unspecified),-13,-20,4.6,14,nt,7,5
COc1ccc(CC(=O)N(C)CC(=O)Nc2cccc(F)c2)cc1S(=O)(=O)N1CCOCC1,0,-11,nt,nt,6234,nt,nt
COc1cc2nc(N(C)C)nc(N)c2cc1OC,3,-23,-4.1,-6,2338,nt,nt
CC(C)CN1CN(Cc2ccccc2)CNC1=S,2,-6,2.3,5,2023,-2,4
CC(=O)c1[nH]c(C)c(C(=O)N2CCCC(Nc3ccc(C(C)C)cc3)C2)c1C (stereo unspecified),-9,2,-0.7,-4,4907,2,-2
CCN(C(=O)CN1CCc2ccccc21)c1c(N)n(Cc2ccccc2)c(=O)[nH]c1=O,-8,-8,2.6,2,4911,1,12
CCCC(=O)Nc1ccc(C(=O)COC(=O)c2cc(C)oc2C)cc1,nt,-12,-3.5,-6,3821,1,-1
Cc1oc(C(N)=O)nc1-c1ccccc1,1,-8,2.2,-4,3626,4,16
COc1cc(C(=O)N/N=C/c2ccc3c(c2)c2ccccc2n3C)ccc1O,0,-4,nt,nt,6700,nt,nt
O=C(NCCN1CCOCC1)c1ccc2c(c1)N(Cc1ccccc1)C(=O)c1ccccc1S2,-1,-14,1.0,-2,5047,5,-6
CCN(CC)S(=O)(=O)c1ccc2nc(CCl)[nH]c2c1,-4,-4,1.9,0,3292,10,0
O=C(N[C@@H](Cc1ccc(O)cc1)C(=O)O)c1ccncc1,3,-7,nt,nt,3557,nt,nt
CCOc1ccccc1CNC(=O)c1nn(C)c2c1CS(=O)(=O)c1ccccc1-2,-3,-5,-2.0,2,6021,2,-2
CC(C)(C)CC(=O)Nc1ccc(S(=O)(=O)NC2=NCCCCC2)cc1,nt,-14,5.9,3,3385,13,9
O=C(/C=C/c1ccccc1)Nc1cc(NC(=O)/C=C/c2ccccc2)cc(C(=O)O)c1,3,-14,-0.4,-5,3924,-9,6
COc1ccccc1N=Nc1c(O)[nH]c2ccc(Br)cc12,8,-18,1.3,2,3600,-5,5
CN1C2C=C3C(C#N)=C(N)C(C#N)(C#N)C(c4ccc(Br)cc4)C3C1CC2 (stereo unspecified),-5,-17,0.9,-2,3989,9,11
COC(=O)N/N=C/c1ccc(Oc2ccccc2)cc1,8,-38,nt,nt,4084,nt,nt
COc1ccc(C(C(=O)NC2CCCC2)N(Cc2ccc(C)cc2)C(=O)c2ccn[nH]2)cc1OC (stereo unspecified),-11,-14,5.7,2,8111,2,2
CCN(CC)C(=O)Oc1ccc2c(c1)O/C(=C\c1ccco1)C2=O,5,-25,3.5,1,3919,9,2
CN(C)S(=O)(=O)c1cccc(C(=O)Nc2ccc(C(=O)Nc3cccc(S(N)(=O)=O)c3)cc2)c1,nt,-10,1.2,-2,3793,3,2
Cc1cc(NS(=O)(=O)c2cccc([N+](=O)[O-])c2)no1,0,-22,8.1,11,7178,4,-9
Cc1ccc(N(CC(=O)O)S(C)(=O)=O)cc1,-19,-21,4.2,4,3691,3,2
COc1ccc(C(=O)CC(c2ccccc2)S(=O)(=O)c2ccc(C)cc2)cc1 (stereo unspecified),-5,nt,3.4,2,nt,14,15
O=C(O)CCCc1nc(-c2ccc(Cl)cc2)no1,4,5,2.0,2,?,3,9
CCn1c(C)nc2cc(C(=O)NN=Cc3ccc(N4CCOCC4)cc3)ccc21,nt,nt,1.3,10,nt,9,4
COc1ccc(-c2nc(CS(=O)CC(=O)NCc3cccnc3)c(C)o2)cc1 (stereo unspecified),0,-17,-10,-3,5940,4,12
O=C(N/N=C/c1ccc([N+](=O)[O-])o1)C1CC1,-3,0,nt,nt,4253,nt,nt
CN(Cc1nccn1C)C(=O)CC1C(=O)NCCN1CC(c1ccccc1)c1ccccc1 (stereo unspecified),1,-19,2.8,1,4554,-1,-6
CCCOc1ccc(CCCN=C(N)N)cc1Cl,11,nt,37,101*,6802,7,2
CCN(Cc1ccccc1)C(=O)Cn1cc2c(n1)CCCC2,5,-2,-4.1,-9,4396,nt,nt
O=C1CC(c2ccc(Cl)c([N+](=O)[O-])c2)c2ccc3ccccc3c2N1 (stereo unspecified),-12,-19,nt,nt,8346,nt,nt

# A run of entries taken from the entries so far, for reference:
SMILES,BJeLR viability,PrP 5UTR inh,RN4220 kill,Sa ugtP lethal,Bead autofluor,Mtb hypoxia rep,Mtb hypoxia rep growth
CCN(Cc1ccccc1)C(=O)Cn1cc2c(n1)CCCC2,5,-2,-4.1,-9,4396,nt,nt
O=C1CC(c2ccc(Cl)c([N+](=O)[O-])c2)c2ccc3ccccc3c2N1 (stereo unspecified),-12,-19,nt,nt,8346,nt,nt

# The list goes on.
SMILES,BJeLR viability,PrP 5UTR inh,RN4220 kill,Sa ugtP lethal,Bead autofluor,Mtb hypoxia rep,Mtb hypoxia rep growth
Cc1ccc(SCCC(=O)NCc2ccco2)cc1,6,-27,-2.2,-2,4294,nt,nt
S=c1[nH]nc(CSc2nc3ccccc3s2)n1C1CCCCC1,10,-3,-4.2,16,4729,nt,nt
CCCC(=O)NC(=S)Nc1cccc(Cl)c1N1CCCCC1,3,nt,-5.9,49,8515,9,-1
COC(=O)C[C@H]1c2cc(F)ccc2S(=O)(=O)N1c1ccc(N(C)C)cc1,9,-4,nt,nt,3147,nt,nt
NC(=O)C1=C[C@@H](c2ccc(C(F)(F)F)cc2)C[C@@H](OCc2ccc(CO)cc2)O1,-8,-15,nt,nt,2909,nt,nt
O=C(O)CSCCCC(=O)Nc1ccc(Br)cc1,-7,-7,4.7,2,8281,3,6
C=CCOC(=O)C1=CC(C2CCCCC2)CC(OCc2ccc(CO)cc2)O1 (stereo unspecified),nt,nt,1.3&0.8,2&-3,nt,8&-4,-2&4
Cc1cc(C)cc(NC(=O)C2C3C=CC4(O3)C2C(=O)N(CCCN2CCCC2)C4C(=O)NC2CCCC(C)C2C)c1 (stereo unspecified),3,-31,-1.4,3,3839,13,7
CCCCCCc1cc2cc(/C(N)=N/NC(=O)c3ccncc3)c(=O)oc2cc1O,nt,-13,4.0,-1,4828,5,9
CCn1cc(-c2cc(C(=O)O)c3ccccc3n2)c(C)n1,-8,-20,1.8,-2,2086,3,2
CCN(CC)CCCN1C(=O)c2oc3ccccc3c(=O)c2C1c1cc(OC)ccc1OC (stereo unspecified),2,-10,7.3,4,10092,5,10
Cc1ccc(C(=O)c2cc([N+](=O)[O-])ccc2N2CCCCC2)c(C)c1,55*,50,-5.0,39,2150,4,4
CCOC(=O)c1ccc(NC(=S)N(CCCN2CCCCCC2)Cc2ccco2)cc1,7,-13,-3.5,-2,9224,-12,-9
CC(=NNC(=O)Cc1c(C)[nH][nH]c1=O)c1cccc(Br)c1,nt,nt,1.8,7,nt,0,9
Fc1ccccc1Cc1noc(CN2CCN(Cc3ccc4c(c3)OCO4)CC2)n1,-2,0,-1.0,1,4220,5,-4
CN(C)c1ccc(C(CNS(=O)(=O)c2ccc3ccccc3c2)c2c[nH]c3ccccc23)cc1 (stereo unspecified),9,-8,1.8,-9,2752,0,-4
CC(C)(O)C1Cc2c(ccc3ccc(=O)oc23)O1 (stereo unspecified),nt,nt,4.7,1,nt,5,1
CCOC(=O)Cc1cc(=O)[nH]c(/N=C(\N)Nc2ccc(OC)cc2)n1,-3,-8,nt,nt,3996,nt,nt
Cc1ccc(NC(=O)CN(C)Cc2c(O)ccc3ccccc23)cc1,-9,nt,0.1,1,nt,-12,-6
O=C(NC(=S)N1C[C@H]2C[C@H](C1)c1cccc(=O)n1C2)c1ccc(Cl)cc1Cl,-1,-13,2.2,-13,4202,nt,nt
CCc1cccc2c(C=C(C#N)C#N)cn(CC(=O)N3CCCC3)c12,-2,-10,5.8,11,9555,11,1
COc1ccc(C=NNC(=O)CN(C2=NS(=O)(=O)c3ccccc32)c2ccccc2)cc1,nt,nt,1.1,11,nt,10,7
CCCSc1ncnc2c1oc1ccccc12,5,-34,9.4,-19,11031,8,4
O=C(NCCCN1CCCCCC1)c1ccc(N2CCCC2=O)cc1,2,-9,-7.0,-6,3259,3,13
CC(=O)c1cccc(NC(=O)C2CCCN(S(=O)(=O)c3cccc4cccnc34)C2)c1 (stereo unspecified),2,-10,-0.5,-1,4691,nt,nt
O=C(N/N=C/c1cccc(Oc2ccccc2)c1)c1ccncc1,-2,-11,nt,nt,4204,nt,nt
COc1cccc(C(=O)N/N=C(\C)c2cccc(NC(=O)c3ccc(F)cc3)c2)c1OC,1,-7,nt,nt,5348,nt,nt
CC(=O)CCC(=O)OCC(=O)Nc1ccc(SC(F)F)cc1,-1,-2,4.7,15,3133,6,2
CCOC(=O)NN=C(c1ccccc1)C(O)c1ccccc1 (stereo unspecified),nt,nt,6.8,7,nt,10,3
CCOC(=O)CN(Cc1ccccc1)S(=O)(=O)c1ccc(NC(C)=O)cc1,10,-19,8.9,-1,21423*,10,10
